Screening results deposited in PubChem by National Center for Advancing Translational Sciences (NCATS).
HPGD inh: HPGD (human) dehydrogenase inhibition | Potency, µM, without a hit: at the highest dose activity change, negative = inhibition, hits mostly inhibitors | P15428 | AID 894 | 4.3% of 150,000 active | purified HPGD, NADH fluorescence kinetic, PGE2 substrate; active = well fitted inhibition curve with a large enough effect (not every such curve was filed as active); inconclusive = small, poorly fitted or top-dose-only effect, or another doubt; inactive = no such curve, though single readings can be large or run the other way;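 note: top concentration of the series not given in the record; plate controls included wells without enzyme; inactives centre near -10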
Target sequence (P15428 whole entry, looked up): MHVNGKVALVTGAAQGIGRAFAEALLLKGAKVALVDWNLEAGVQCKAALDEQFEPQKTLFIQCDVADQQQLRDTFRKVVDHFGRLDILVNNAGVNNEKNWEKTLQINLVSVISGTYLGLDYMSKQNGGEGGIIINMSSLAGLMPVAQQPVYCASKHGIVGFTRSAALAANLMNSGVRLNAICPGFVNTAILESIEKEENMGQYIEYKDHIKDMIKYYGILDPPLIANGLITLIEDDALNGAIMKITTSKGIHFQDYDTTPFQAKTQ
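NADH formation kinetics: reaction with 30 uM PGE2 and 1 mM NAD+ (final), 20 nM enzyme, Tris-HCl pH 8 with Tween 20, after 15 min compound preincubation at room temperature. Fluorescence change, last versus first of five reads.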
Numbers without * were called inactive; ? = inconclusive; & = joins results of further samples. % is set by controls: 0 for no effect and ±100 for the full control effect; potency is the fitted concentration of half-maximal effect.

SMILES | HPGD inh
CCOC(=O)N1CCC(NC(=O)c2ccc(NC(=O)C3CCCO3)cc2)CC1 (stereo not given) | -12%
CCc1c(C(=O)Nc2ccncc2)csc1C | -1%
O=C(NCc1ccccc1)C1C2C=CC3(CN(Cc4cccnc4)C(=O)C13)O2 (stereo not given) | -10%
COc1ccc(S(=O)(=O)Nc2nncs2)cc1 | -23%
CN(C)Cc1nsc(N(C)C)n1 | 1%
COc1cc(-c2nnc(SCC(=O)Nc3ccc4c(c3)OCCO4)o2)cc(OC)c1OC | -21%
Cc1ccc(NC(=O)c2ccc(CNS(=O)(=O)c3cccc(C(F)(F)F)c3)cc2)cc1 | 1%
COc1cc(Br)cc2cc(C(=O)N3CCN(c4ccccn4)CC3)c(=O)oc12 | -16%
O=C(CSc1ncn[nH]1)Nc1ccnc2ccccc12 | ?
COC(=O)CSc1ccc2c(N)c(C(=O)OC)sc2c1 | ?
CCC(C)NC(=O)COc1ccc(Br)c(C)c1 (stereo not given) | -13%
CCOc1ccc(/C=C(\C(=O)O)c2ccc(S(=O)(=O)N3CCOCC3)s2)cc1OC | -9%
COc1ccc(CC(=O)Nc2cc(=O)n(C)c(=O)n2C)cc1 | -7%
C=CCn1c(SCC(=O)NCc2cccs2)nnc1C1CCCCC1 | -3%
Cc1ccc(-n2c(SCC(=O)Nc3cc(C)on3)nc3c([nH]c4ccccc43)c2=O)cc1 | -10%
N[C@@H](Cn1cc(F)c(=O)[nH]c1=O)C(=O)O | -8%
O=C(Nc1ccccc1)c1ccc(NCCc2ccccc2)c([N+](=O)[O-])c1 | -8%
CC(=O)C1=C(c2ccccc2)NC(=O)NC1c1ccccc1OCC#N (stereo not given) | -15%
COc1cc(S(=O)(=O)N2CCCCCC2)ccc1Cl | -10%
COc1ccc(OC)c(/C=N/NC(=O)CC2C(=O)NN=C2C)c1 (stereo not given) | ?
O=C(Nc1nncs1)c1cccc(S(=O)(=O)N2CCCC2)c1 | -11%
CCOC(=O)N1CCN(C(=O)C2CCC(CNS(=O)(=O)c3ccccc3)CC2)CC1 (stereo not given) | -5%
Cc1cc(C)c(S(=O)(=O)N(CC(=O)N2CCOCC2)C2CCCCC2)c(C)c1 | -1%
COc1ccc(-n2c(O)c(/C=N/NS(=O)(=O)c3cc(C)ccc3C)c3ccccc3c2=O)cc1OC | -19%

Retrieved by compound from the entries so far (three):
SMILES | HPGD inh
CCOC(=O)N1CCN(C(=O)C2CCC(CNS(=O)(=O)c3ccccc3)CC2)CC1 (stereo not given) | -5%
CC(=O)C1=C(c2ccccc2)NC(=O)NC1c1ccccc1OCC#N (stereo not given) | -15%
O=C(Nc1ccccc1)c1ccc(NCCc2ccccc2)c([N+](=O)[O-])c1 | -8%

Later entries
SMILES | HPGD inh
CCC(=O)Nc1ccc(NC(=O)CSc2nc3cc4c(cc3cc2C)CCC4)cc1 | -21%
CC(C)c1ccc(Nc2nnc(SC3CCOC3=O)s2)cc1 (stereo not given) | -18%
COc1ccc(C(=O)NCCSC2CCCCC2)cc1 | -1%
OCCNCc1cc(Br)ccc1OCc1ccc(Cl)cc1Cl | 1%
O=C(CCN1C(=O)C2C3C=CC(C3)C2C1=O)N1CCN(c2cccc(Cl)c2)CC1 (stereo not given) | -13%
CCCCCCn1c(COc2ccccc2F)nnc1SCC(=O)c1c(N)n(C)c(=O)n(C)c1=O | -12%
Cc1cccc(NC(=O)Cn2cnc3c(oc4nc5c(cc43)COC(C)(C)C5)c2=O)c1 | -18%
Cc1cccc(-n2nnc3cnn(C)c3c2=O)c1 | -12%
O=C(Nc1ccc2c(c1)OCCO2)c1cccc(S(=O)(=O)N2CCOCC2)c1 | -11%
COC(=O)CSc1nnc(Cc2cc(=O)[nH]c(=O)[nH]2)n1-c1cccc(OC)c1 | 4%
O=C(c1ccc(Cl)s1)N1CCc2ccccc21 | -15%
CC(=O)N/C(=C\c1cccc([N+](=O)[O-])c1)C(=O)NC(C)C | -14%

Seven entries already listed, sorted by molecular weight, low to high.
SMILES | HPGD inh
Cc1cccc(-n2nnc3cnn(C)c3c2=O)c1 | -12%
COc1ccc(S(=O)(=O)Nc2nncs2)cc1 | -23%
COc1ccc(CC(=O)Nc2cc(=O)n(C)c(=O)n2C)cc1 | -7%
O=C(Nc1nncs1)c1cccc(S(=O)(=O)N2CCCC2)c1 | -11%
Cc1cccc(NC(=O)Cn2cnc3c(oc4nc5c(cc43)COC(C)(C)C5)c2=O)c1 | -18%
Cc1ccc(NC(=O)c2ccc(CNS(=O)(=O)c3cccc(C(F)(F)F)c3)cc2)cc1 | 1%
CCCCCCn1c(COc2ccccc2F)nnc1SCC(=O)c1c(N)n(C)c(=O)n(C)c1=O | -12%

More records.
SMILES | HPGD inh
Cc1ccc(NC(=O)c2c(C(F)(F)F)nn(C)c2SCc2ccc(Cl)cc2)cc1C | -14%
COc1ccc(-n2c(C)cc(C(=O)COC(=O)Cc3n[nH]c(=O)c4ccccc34)c2C)cc1 | -29%
CCOC(=O)Cn1c(=O)c2c(nc3n2CCN3Cc2ccccc2)n(C)c1=O | -18%
CC(C)Cn1c(O)c(/C=C2\C=NN=C2c2ccccc2)sc1=S | -12%
O=C1CCCC2=C1C1(CCCC1)N=C(Nc1nc3ccccc3s1)N2 | ?
CCOc1nc(N=C(N)N)nc2c(C)cccc12 | ?
CCOc1ccccc1OC(=O)c1ccco1 | -12%
CC(O)(CS(=O)(=O)Cc1ccccc1)C(=O)Nc1cccc(C(F)(F)F)c1 (stereo not given) | -1%
Cc1ccc2oc(-c3cccc(NC(=O)c4cc(-n5cnnc5)ccc4Cl)c3)nc2c1 | ?
COc1ccc2c(c1)C1(C)CC(C)(C)N2C(=O)N1c1ccccc1 (stereo not given) | ?
Cc1noc(NS(=O)(=O)c2ccc(NC(=O)c3ccoc3C)cc2)c1C | -5%
CCOc1ccc(OCC)c(NC(=O)CSc2nc3cccnc3n2C)c1 | -18%
Cc1cc(NC(=O)CSc2nnc(CNc3ccc(F)cc3)n2C2CCCCC2)no1 | -16%
CCOC(=O)c1sc(NC(=S)NC(=O)c2ccccc2Cl)c(C(=O)OCC)c1C | -11%
Cc1ccccc1-c1nnc(SCC(=O)Nc2ccc3c(c2)OCCO3)n1N | -11%
COc1ccc(OC)c(N(CC(=O)O)S(=O)(=O)c2ccc(OC)c(OC)c2)c1 | -10%
Cc1ccc(N=Nc2c(O)c3ccccc3[nH]c2=O)c(S(=O)(=O)N(C)C)c1 | -1%
CCn1c(SCC(N)=O)nc2c1c(=O)n(C)c(=O)n2C | -7%
O=C(NCCN1C(=O)C2C3C=CC(C3)C2C1=O)Nc1ccc(Br)cc1 (stereo not given) | -11%
CCC(=O)Nc1c(C#N)c2nc3ccccc3nc2n1-c1ccccc1C | ?
O=C(COC(=O)c1cn(-c2ccccc2)nc1-c1cccs1)NC1CC1 | -6%
O=C(OCn1ncc(Br)c(Br)c1=O)c1ccccc1Cl | ?
CCCc1nnc(SCC(=O)N2CCOCC2)n1C | -1%
COc1cc2cc(Oc3ccc4ccc(=O)oc4c3)c(=O)oc2cc1OC1OC(COC(=O)CC(C)(O)CC(=O)O)C(O)C(O)C1O (stereo not given) | ?
COc1ccc(N2C(=O)CSC2c2cccc(F)c2)c(OC)c1 (stereo not given) | 0%
Cc1nnc(SCc2c(Cl)cccc2Cl)s1 | -11%
O=C(NC(=O)c1cccc(F)c1)OC[C@@H]1CCCN2CCCC[C@H]12 | -7%
COc1ccc(OC)c(N(CC(=O)Nc2cccnc2)S(=O)(=O)c2ccccc2)c1 | 7.9µM*
O=C1OCCC1N1C(=O)c2ccccc2S1(=O)=O (stereo not given) | -1%
CCOc1cccc(C(=O)Nc2cccc(C(=O)NCC(C)C)c2)c1 | -8%
CCC1S/C(=N/N=C/c2ccco2)NC1=O (stereo not given) | -21%
O=C(Cn1c(=O)oc2cc(S(=O)(=O)N3CCc4ccccc43)ccc21)N1CCCCC1 | -9%
O=C(Nc1ccc([N+](=O)[O-])cc1Cl)c1cc(Cl)ccc1O | -6%&-17%&-14%
O=S(=O)(Nc1nc2ccccc2[nH]1)c1ccccc1 | -6%
Cc1noc(C)c1CN(C(=S)NC1CC1)c1ccccc1 | -1%
COc1ccc([N+](=O)[O-])cc1NC(=O)CSCc1ccc(Br)cc1 | -16%
COC(=O)c1cc(NCc2cccs2)ccc1N1CCOCC1 | -9%
CCN(CCNC(=O)CS(=O)(=O)Cc1nc(-c2cccc(OC)c2)oc1C)c1ccccc1 | -19%
C#CC(C)(C)NC(=O)CSc1nc2c(c(=O)n(C)c(=O)n2C)n1CCCC | -11%
CNS(=O)(=O)c1cccc(C(=O)OCC(=O)NCc2ccccc2)c1 | -10%
O=C(NCCc1c[nH]c2ccccc12)Nc1cccc2ccccc12 | -8%
CC(C)N(C(=O)NC(=O)NCC1CCCO1)S(C)(=O)=O (stereo not given) | -7%
COc1cccc(-n2c(CN3CCN(c4ccc(C)cc4)C(C)C3)nc3ccc([N+](=O)[O-])cc3c2=O)c1 (stereo not given) | -5%
COc1ccc(OCCCC(=O)Nc2nnc(C3CCCO3)s2)cc1 (stereo not given) | -3%
Cc1cccc(NC(=O)c2cccnc2)c1 | -4%
C=C(C)C(=O)Nc1ccc(OC(F)(F)C(F)F)c(NC(=O)C(=C)C)c1 | -5%
COc1ccc2[nH]cc(CCN=C3SCC(=O)N3C)c2c1 | -12%
COc1ccc(Nc2ccc(S(=O)(=O)N3CCCCC3)cc2[N+](=O)[O-])cc1 | -6%
CC1CCc2nn(CC(=O)NCCN3CCOCC3)cc2C1 (stereo not given) | -5%
Cc1ccc(/C=N/NC(=O)CN2CCN(S(=O)(=O)c3ccc(Br)cc3)CC2)s1 | -3%
Cc1ccc(C2NC(=O)c3c(sc(C)c3C)N2)c(O)c1 (stereo not given) | -22%
COc1ccc2c(c1)OC13CCCCC1C2C(C(=O)c1ccccc1)C(=O)N3 (stereo not given) | -11%
C=CCN(N=Nc1cccc([N+](=O)[O-])c1)c1cccc([N+](=O)[O-])c1 | -25%
O=C(NCCCn1ccnc1)c1nn2c(C(F)(F)F)cc(-c3ccc(Br)cc3)nc2c1Cl | -6%
CCn1c(SCC(=O)Nc2ccc3c(c2)OCO3)nc2ccccc21 | -15%
N#Cc1ccccc1NC(=O)C1CC(=O)N(c2ccc3c4c(cccc24)CC3)C1 (stereo not given) | -6%
CC1=CC(=C2C(=O)c3ccccc3C2=O)C=C(C)N1C | -4%
COc1ccc(C2/C(=C(/O)c3ccccc3)C(=O)C(=O)N2CCO)cc1 (stereo not given) | -6%
CC(C)(C)NC(=O)C(c1ccco1)N(Cc1ccc2c(c1)OCO2)C(=O)Cn1nnc2ccccc21 (stereo not given) | -7%
Cc1cc(C)n2nc(SCc3cc(=O)oc4cc(O)ccc34)nc2n1 | -26%

Later entries.
SMILES | HPGD inh
O=C(O)CSc1nc2ccc(Cl)cc2[nH]1 | -13%
CC(Oc1ccc(Br)cc1)C(=O)Nn1c(=S)[nH]c2ncccc2c1=O (stereo not given) | -7%
Cc1nnc(SCCN2CCOCC2)n1-c1cccc(Cl)c1 | 7%
COc1ccc(/C=N/NC(=O)CNC(=O)COc2ccccc2)cc1 | -16%
Cc1ccc(Cl)cc1OCC(=O)NCCOC(=O)Nc1sc(=S)n(C)c1C | -15%
COC(=O)C1(C)NC(c2cccs2)C2C(=O)N(c3ccc(F)cc3)C(=O)C21 (stereo not given) | 2%
COc1cccc(-c2nnc(SCC(=O)NCc3ccc4c(c3)OCO4)n2Cc2ccco2)c1 | -8%
CCn1cnc2cc(NCc3nc4ccccc4n3Cc3ccccc3)ccc21 | -3%
O=C(Nc1ccon1)c1ccccc1F | -14%
O=S(=O)(NC1CCCC1)c1cccc(-c2nnc(-c3ccccc3)o2)c1 | ?
COc1ccc(NC(=O)C2=C(C)Nc3ncnn3C2c2ccccc2C(F)(F)F)c(OC)c1 (stereo not given) | -24%
N#Cc1ccc(COC(=O)C2CCC(=O)N2)cc1 (stereo not given) | -3%

An excerpt from above in order of their number in HPGD inh, high to low.
SMILES | HPGD inh
O=C(NCc1ccccc1)C1C2C=CC3(CN(Cc4cccnc4)C(=O)C13)O2 (stereo not given) | -10%
O=C(O)CSc1nc2ccc(Cl)cc2[nH]1 | -13%
Cc1cc(NC(=O)CSc2nnc(CNc3ccc(F)cc3)n2C2CCCCC2)no1 | -16%
CCOC(=O)Cn1c(=O)c2c(nc3n2CCN3Cc2ccccc2)n(C)c1=O | -18%
CCC1S/C(=N/N=C/c2ccco2)NC1=O (stereo not given) | -21%
COc1ccc(S(=O)(=O)Nc2nncs2)cc1 | -23%

(list continues)
SMILES | HPGD inh
CC1(C)NC(=O)N(CC(O)COc2ccc(N3C(=O)c4ccccc4C3=O)cc2)C1=O (stereo not given) | -12%
CCC1c2ccc(C)n2CCN1C(=O)Nc1ccccc1OC (stereo not given) | -19%
Cc1ccc(SCCNC(=O)c2ccc(C)c(S(=O)(=O)Nc3ccccc3C)c2)cc1 | -6%
COc1ccccc1C(=O)Nc1ccc(N2CCN(S(C)(=O)=O)CC2)cc1 | ?
CC1CCCN(CCCNC(=O)CCn2nc(-c3ccccc3)ccc2=O)C1 (stereo not given) | -14%
CCn1cc(C(=O)O)c(=O)c2cc(F)c(N3CCN(C(=O)Nc4ccccc4)CC3)cc21 | ?
O=C(Nc1ccc2c(c1)OCO2)c1ccc(Cl)s1 | 16µM*
Cc1ccc(Cn2c(=N)n(CC(O)COc3ccccc3)c3ccccc32)cc1 (stereo not given) | -12%
COC(=O)C1(C(C)=O)CC2=CC[C@@H]3C(=O)N(c4ccccc4)C(=O)[C@@H]3[C@@H]2Cc2ccccc2[C@@H]1C[N+](=O)[O-] (stereo not given in full) | -9%
O=C(COC(=O)c1ccco1)NCc1cccs1 | -11%
COc1cccc(/C=N/NC(=O)CSc2ccccc2C)c1O | -16%

The list is partial (hit frequency here may not be typical).
